# From PubChem
# Vaccinia Venus = inhibitors of vaccinia virus (Venus reporter). Vaccinia virus Venus reporter expression, fluorescence. Potency, µM (doses to about 36.5 µM), for inactives: at the top dose activity change, negative = inhibition, actives largely listed as inhibitors. 330,000 tested, 0.46% active; active means well fitted inhibition curve with a large enough effect; inconclusive means small, poorly fitted or top-dose-only effect; inactive means no such curve, though single readings can be large or run the other way; tested in A549 cells; note: nearly all actives have a fitted effect of over 30% in size; inactives centre near -10
# VACV mCherry inh = vaccinia inhibition (mCherry reporter) | Vaccinia virus mCherry reporter infection, fluorescence; about a quarter of the inactives have no number | Potency, µM (highest dose often 36.5 µM), for inactives: top-dose activity change, negative = inhibition, actives largely listed as inhibitors | 310,000 tested, 0.63% active | AID 720579; active = well fitted inhibition curve with a large enough effect; inconclusive = small, poorly fitted or top-dose-only effect; inactive = no such curve, though single readings can be large or run the other way; tested in A549 cells; note: nearly all actives have a fitted effect of over 35% in size; inactives centre near -10
# * marks the source's active call; other numbers are inactive results; i = inactive; u = inconclusive; x = no result given; & = joins results of further samples; [ ] = another dose, or the depositor's remark. % is set by controls: 0 for no effect and ±100 for the full control effect; potency is the fitted concentration of half-maximal effect.
compound | Vaccinia Venus | VACV mCherry inh
COC(=O)[C@@]12C[C@@H](CC(=O)NCc3cccc4ccccc34)C(=O)N(Cc3ccccc3)C1=CCC(C)(C)C2 | u | u
CC(C)CNC(=O)c1cccc2c(-c3cccc(C(N)=O)c3)coc12 | -11% | 13%
COc1cc(CNC2CCCC2)cc(Cl)c1OCc1ccccc1F | 16µM* | u
CCn1c(CN2CCN(C(c3ccccc3)c3ccccc3)CC2)nc2c1c(=O)n(C)c(=O)n2C | 5% | 25%
CCOc1ccccc1OCCOCCOc1ccccc1[N+](=O)[O-] | -8% | -23%
Cc1nc2c(C)cccc2c2c1COC2 | -13% | -14%
CC(C)n1c(=O)c(C=Nc2cccc([N+](=O)[O-])c2)c(O)n(CCc2ccccc2)c1=O | -11% | -2%
CC(=O)Nc1ccc(S(=O)(=O)NCC(=O)NCCCc2ccccc2)cc1 | 7% | -5%
CCC(=O)c1cn(CC(=O)NCC2CCCO2)c2ccccc12 (stereo not drawn) | -3% | -6%
COc1ccc2nc(SCCC(=O)O)cc(C)c2c1 | 3% | i
CCOc1ccccc1NC(=O)C1CCN(S(=O)(=O)c2c(C)nn(C)c2C)CC1 | -12% | -19%
O=C(CCc1ccccc1)NNC(=O)c1ccccc1C(=O)O | -5% | -7%
COc1ccccc1N1CCN(Cc2cnc(-c3ccccc3)[nH]2)CC1 | 3% | -13%
CCc1cc(-c2nnn(CCC3COCCO3)c2CC)cc(CC)c1-c1cn(Cc2ccc3ccccc3c2)nn1 (stereo not drawn) | u | u
N/C(Cc1ccccc1Sc1ccccc1)=N\O | -10% | -11%

# Further records follow:
compound | Vaccinia Venus | VACV mCherry inh
CCCCOc1ccc(-c2nnn(CCC(=O)N3CCOCC3)n2)cc1 | -7% | -15%
Cc1cc2c(Nc3ccc(O)cc3)ncnc2s1 | -14% | u
N#Cc1ccc(CSc2nnc(-c3ccccn3)n2-c2ccc(Cl)cc2)cc1 | -8% | -1%
CC(C)C(C)NC(=O)COc1ncnc2sccc12 (stereo not drawn) | -7% | i
O=C(NCc1cccc(Br)c1)C1CC(c2cc(C(F)(F)F)cc(C(F)(F)F)c2)=NO1 (stereo not drawn) | -15% | -2%
O=C(OCC(=O)N1CCCCC1)c1cc(S(=O)(=O)N2CCOCC2)c(Cl)cc1Cl | -11% | -16%
Cc1ccc(N(CC(=O)N2CCOCC2)S(C)(=O)=O)cc1 | -7% | -6%
COc1ccc(S(=O)(=O)Cc2ccc(C(=O)NCc3cccs3)o2)cc1 | -7% | -2%
O=C(NCCCN1CCCC1=O)c1cccc(NS(=O)(=O)c2ccccc2)c1 | -9% | -12%
COC(=O)[C@]1(Cc2ccccc2)N[C@H](c2ccc(-c3cc(C(C)=O)cs3)cc2)[C@@H]2C(=O)N(C)C(=O)[C@@H]21 | u | u
O=C(Cn1cnc2ccccc2c1=O)N1CCc2ccccc2C1 | -12% | i
CCN(CC)S(=O)(=O)c1cc(OC)ccc1N=Nc1ccc(O)c2ncccc12 | u | u
Cc1cccc(OC(C)C(=O)Nc2nc(-c3cccnc3)cs2)c1 (stereo not drawn) | -19% | -8%
Cc1ccc(S(=O)(=O)N2CCC(=O)N(C(COCc3cccc(C(F)(F)F)c3)C(C)C)CC2)cc1 (stereo not drawn) | u | u
CCC1(C)Cc2ccccc2C(=S)N1 (stereo not drawn) | -12% | i

# Of the compounds above, 4 contain a thiophene ring, fused or not.
compound | Vaccinia Venus | VACV mCherry inh
Cc1cc2c(Nc3ccc(O)cc3)ncnc2s1 | -14% | u
CC(C)C(C)NC(=O)COc1ncnc2sccc12 (stereo not drawn) | -7% | i
COc1ccc(S(=O)(=O)Cc2ccc(C(=O)NCc3cccs3)o2)cc1 | -7% | -2%
COC(=O)[C@]1(Cc2ccccc2)N[C@H](c2ccc(-c3cc(C(C)=O)cs3)cc2)[C@@H]2C(=O)N(C)C(=O)[C@@H]21 | u | u

# Next section.
compound | Vaccinia Venus | VACV mCherry inh
CCOc1ccc(CNC(=O)C2Cc3ccccc3N2C(=O)CC)cc1 (stereo not drawn) | 1% | -6%
Cc1ccc(CN2C(=O)C(C)Oc3ccccc32)cc1 (stereo not drawn) | -4% | i
Cc1ccc(Cl)cc1-n1c(SCC(=O)NCc2ccccc2)nc2n[nH]c(C)c2c1=N | -16% | -13%
O=C(NCc1cccn1Cc1ccccc1)Nc1ccc(Br)cc1F | -23% | -13%
O=C(Nc1ccccc1N1CCCC1)c1cc2ccccc2o1 | -11% | -4%
COC(=O)[C@@]1(Cc2ccc(OC)cc2)[C@H]2c3cc(C(=O)N4CCCC4)n(CCO)c3C[C@H]2CN1C(=O)c1ccccc1 | -8% | 20%
COc1ccc(S(=O)(=O)N2CCCCC2)cc1C(=O)N1CCCCCC1 | -20% | i
Cc1cc(C)c(C(=O)CSc2nnc(N)s2)cc1C | 0% | 0%
CCCCOC(=O)Nc1nc2ccc([N+](=O)[O-])cc2s1 | -1% | 3%
CCOC(=O)CC1(C)OCC(C[N+]2(C)CCCCC2)O1 (stereo not drawn) | -3% | -9%
COc1ccc(-c2cc(=O)oc3c(C)c(OCC(=O)N[C@@H](Cc4ccc(O)cc4)C(=O)O)ccc23)cc1 | -1% | -8%
CCNS(=O)(=O)c1ccc(NC(=O)Nc2cccc(C(F)(F)F)c2)cc1 | u | u
C=CCSC(=C(C#N)C#N)c1cc2c([nH]1)CCCC2 | 1% | x
O=C1c2oc3ccccc3c(=O)c2C(c2ccc(Br)cc2)N1c1ccccn1 (stereo not drawn) | -10% | i
CCOc1cc(CNC(C)C)c(Cl)cc1OCC(=O)NCCc1ccccc1 | -15% | x

# (cont.)
compound | Vaccinia Venus | VACV mCherry inh
Cc1ccc(C(=O)Oc2ccc(Br)cc2C(=S)N2CCOCC2)cc1 | -14% | -33%
NC(=O)COc1ccc(=O)n(-c2ccccc2)n1 | -14% | i
Cc1ccccc1C(=O)N1CCCC(CCC(=O)N2CCN(c3ccccn3)CC2)C1 (stereo not drawn) | -20% | i
OCC1OC(n2cnc3c(=S)nc[nH]c32)C(O)C1O (stereo not drawn) | -28%&-13%&-25% | u
CCc1ccc(CNC(=O)C2CCCN(c3nn4c(=O)cc(C)nc4s3)C2)cc1 (stereo not drawn) | -4% | 11%
CCc1ccc(C2CC(=O)c3c([nH]c(C(=O)OC4CCCC4)c3C)C2)cc1 (stereo not drawn) | -5%[7.34 µM] | -3%[7.34 µM]
CC1=[N+](CC(=O)NC(C)(C)C)CCc2ccccc21 | -8% | -13%
C=CCn1c(=O)c(CCC(=O)Nc2ccc(N3CCOCC3)cc2)nc2cc(C(F)(F)F)ccc21 | -25% | u
COC(=O)C1=C(CN2CCSCC2)NC(=O)NC1c1cc(C)ccc1C (stereo not drawn) | -8% | x
CCOC(=O)CNC(=O)N1Cc2cc(-c3ccccc3)ccc2-n2nncc2C1 | -7% | i
COC(=O)C1C(=O)C2=C(CC1C)NC(C)=C(C(=O)OCCOc1ccccc1)C2c1ccc(C)o1 (stereo not drawn) | -5% | -19%
COc1cccc(C(=O)N2CCN(C(=O)c3ccc(-c4ccccc4)cc3)CC2)c1OC | -6% | i
O=C1CCC(c2ccccc2)(C2CCN(Cc3ccccc3)CC2)C(=O)N1 (stereo not drawn) | -7%&-11% | -14%
Cc1cc2ccccc2n1CCNC(=O)C1CC1 | 5% | -8%
O=S(=O)(NCc1ccccc1Cl)c1cnc[nH]1 | -1% | i

# (list continues)
compound | Vaccinia Venus | VACV mCherry inh
Cc1ccc(S(=O)(=O)Nc2ccc3[nH]c(=O)[nH]c3c2)c(C)c1 | -14% | -13%
COc1ccccc1N(CCC#N)C(=O)CSc1nnc2ccccn12 | -6% | i
Cc1onc(-c2ccccc2)c1C(=O)Nc1nnc(COc2ccc(Cl)cc2)s1 | -8% | x
CC(C)(C)c1ccc(C(=O)NC(=S)Nn2cnnc2)cc1 | -8% | -18%
Cc1cc(C(F)(F)F)c2c(=O)[nH]c(=O)n(Cc3ccccc3)c2n1 | -11% | i
CCOC(=O)Nc1nnc(-c2ccc(OC)c(OC)c2)s1 | -7% | x
O=C(O)C(Cc1ccccc1)n1cccc1 (stereo not drawn) | -7% | -10%
O=C(NC1CCCCC1)C1CCN(S(=O)(=O)c2cccc3nsnc23)CC1 | -11% | -20%
Cc1ccccc1-n1ncc2c1CC(C)(C)CC2NC(=O)CCN1CCCCC1=O (stereo not drawn) | 4% | -1%
COc1ccc(-n2c(N)c(C(=O)NCC3CCCO3)c3nc4ccccc4nc32)c(OC)c1 (stereo not drawn) | -4% | -10%
Cc1ccc(NC(=O)CCCn2c(=O)c3cccn3c3cccnc32)c(C)c1 | -14% | -20%
CCc1cc(Cn2nc(-c3ccccc3C)cc2C(=O)O)on1 | -2% | i
O=C(NCCN1CCC(n2c(=O)[nH]c3ccccc32)CC1)C(c1ccccc1)c1ccccc1 | -19% | -28%
CCOc1ccc(Nc2nc3c(S(=O)(=O)c4ccc(CC)cc4)nnn3c3ccc(Cl)cc23)cc1 | u | -27%
O=C(Nc1ccc(F)cc1)N1CCN(c2ncccn2)CC1 | -15% | -6%

# A different layout for two compounds above.
Cc1onc(-c2ccccc2)c1C(=O)Nc1nnc(COc2ccc(Cl)cc2)s1
- Vaccinia Venus: -8%
- VACV mCherry inh: x

O=C(NC1CCCCC1)C1CCN(S(=O)(=O)c2cccc3nsnc23)CC1
- Vaccinia Venus: -11%
- VACV mCherry inh: -20%

# (listing goes on)
compound | Vaccinia Venus | VACV mCherry inh
COc1ccc(NS(=O)(=O)c2ccc(N3CCCC3)c(NC(=S)Nc3cccc(C)c3C)c2)cc1 | -19% | -28%
CC(C)n1c(NCc2cc(Cl)ccc2O)nc2ccccc21 | -28% | u
C=CCn1c(O)c(C(CC)=NCCN2CCN(C(=S)NC)CC2)c(=O)[nH]c1=O | -10% | i
Cc1ccc(-n2c(SCC(=O)N3CCOCC3)nnc2-c2ccncc2)cc1 | -9% | -18%
O=C(CS(=O)(=O)c1cccc2nsnc12)Nc1ccccc1 | 13% | 7%
CC(C)(C)C(=O)Cn1c(=O)n(CCCCCC(=O)NCc2ccc3c(c2)OCO3)c(=O)c2sccc21 | -13% | i
CC(C)CNS(=O)(=O)c1ccc(S(=O)(=O)N2CCC3(CC2)OCCO3)cc1 | -20% | -9%
Cc1ccc(S(=O)(=O)c2cn(Cc3ccccc3)c3cc(N4CCCCC4)c(F)cc3c2=O)cc1 | -9% | -5%
CCCCN(Cc1ccco1)C(=O)Cn1ncc2c(=O)oc3ccc(C)cc3c21 | -8% | -1%
CNS(=O)(=O)c1ccc(Cl)nc1 | -7% | i
CN(C)CCCNC(=O)c1ccc(-c2nc(-c3ccc(Cl)cc3)cs2)cc1 | 22µM* | u
Oc1ccc(Br)cc1/C=N/Nc1ncc(-c2ccccc2)cn1 | 7% | i
CC(=O)N1CCN(c2ccc(S(=O)(=O)N3CCOCC3)cc2[N+](=O)[O-])CC1 | -9% | i
N#CCOc1ccc(C2=NO[C@@H]3[C@@H]4C[C@@H]([C@H]5C(=O)N(c6ccc7c(c6)OCO7)C(=O)[C@@H]45)[C@H]23)cc1 | -14% | i
FC(F)(F)c1ccnc(N2CCN(Cc3cnc(-c4ccccc4)[nH]3)CC2)c1 | -3%[7.34 µM] | -15%[7.34 µM]

# The results go on:
compound | Vaccinia Venus | VACV mCherry inh
Oc1cc(-c2nc3ccccc3s2)cc2c1OCCN(Cc1cn[nH]c1-c1ccc(Cl)cc1)C2 | -10% | -22%
Cc1[nH]nc(Nc2ccc(O)cc2)c1[N+](=O)[O-] | 7% | 11%
COCc1cc(C)nc2sc(C(=O)NN)c(-n3cccc3)c12 | 10% | 5%
COc1cccc(NC(=O)C2CCN(S(=O)(=O)c3c(C)noc3/C=C/c3cccs3)CC2)c1 | -16% | -12%
C/C(=N\NC(=O)c1cc(C)nc2ccccc12)c1ccc([N+](=O)[O-])cc1 | 0% | i
COc1cc(C(=O)Nc2nc3c(s2)Cc2c(Br)ccc(OC)c2-3)cc(OC)c1OC | -5% | -8%
CC(C)c1nn2c(=O)cc(COC(=O)CNC(=O)c3ccccc3Cl)nc2s1 | 5% | -1%
O=C(NCCc1ccc(Cl)cc1)c1nc(-c2cccc(F)c2)n2c1CCCCC2 | -17% | -10%
COc1ccc(-c2nnc(-c3cc4ccccc4oc3=O)o2)cc1 | 2% | -11%
O=C(CSc1nc(O)cc(=O)[nH]1)N1c2ccccc2CCc2ccccc21 | -11% | i
COc1ccccc1CNC(=O)Cn1nc(C)n2cccc2c1=O | -4% | -9%
COc1ccc(-n2ncc(Cl)c(Cl)c2=O)cc1 | -22% | -21%
CC(C)(C(=O)N1CCC1(C)C(=O)NS(=O)(=O)c1ccccc1Cl)c1ccccc1 (stereo not drawn) | -5% | 38%[activator]
Cc1cc2c(=O)n(CC(=O)N3CCN(c4ccccc4)CC3)cnc2s1 | -13% | x
CCOC(=O)N1CCC(N2CC34C=CC(O3)C(C(=O)Nc3ccc(C)cc3)C4C2=O)CC1 (stereo not drawn) | 9% | -4%

# Continuation:
compound | Vaccinia Venus | VACV mCherry inh
O=C(c1cccc([N+](=O)[O-])c1)N1CCN(S(=O)(=O)N2CCCCC2)CC1 | -16% | u
CCc1ccc(OCc2nnc(-c3ccccc3Br)o2)cc1 | -11% | -19%
CCOc1ccc(CN(C(=O)c2nc(SC)ncc2Cl)C2CCS(=O)(=O)C2)cc1 (stereo not drawn) | 4% | -6%
O=C(Nc1nnc(SCC(=O)N2CCCCC2)s1)c1ccc(F)cc1F | 3% | -6%
Cc1onc(-c2ccccc2)c1-c1csc(N/N=C/c2ccccc2)n1 | 9% | u
Cc1cc(C)c2nc(-c3cccnc3)cc(C(=O)NC(C)c3cnn(C)c3C)c2c1 (stereo not drawn) | -11% | -3%

# This is a random part of the collection; any-hit rate near 0.86%.
